D2 potentiator = potentiates the human D2 dopamine receptor allosterically; P14416; DiscoveRx D2 beta-arrestin cells, luminescence, 90 min; 100% = 57 uM dopamine signal; potentiation, % (no concentration beside the values); 360,000 tested, 0.23% active; AID 624464; active = potentiation of 50% or more; inconclusive = 30% to 50%; inactive = 30% or less;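 note: compound concentration not given in the record; tested on top of an EC20 dose of dopamine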
Target sequence (P14416 whole entry, looked up): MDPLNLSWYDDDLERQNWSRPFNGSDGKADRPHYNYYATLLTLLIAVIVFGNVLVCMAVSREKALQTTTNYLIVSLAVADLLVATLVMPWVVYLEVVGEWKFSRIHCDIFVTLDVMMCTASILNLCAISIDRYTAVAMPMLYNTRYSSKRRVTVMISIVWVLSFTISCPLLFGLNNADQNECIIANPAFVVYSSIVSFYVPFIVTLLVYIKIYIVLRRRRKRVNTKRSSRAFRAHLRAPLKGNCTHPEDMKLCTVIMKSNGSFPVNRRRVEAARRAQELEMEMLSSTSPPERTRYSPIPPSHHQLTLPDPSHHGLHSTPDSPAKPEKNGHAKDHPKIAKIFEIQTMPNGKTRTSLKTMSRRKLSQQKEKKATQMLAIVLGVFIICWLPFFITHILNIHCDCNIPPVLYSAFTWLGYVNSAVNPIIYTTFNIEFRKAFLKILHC
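D2 cells co-treated with compound plus 50 nM dopamine (EC20) for 90 min at 37 deg C to detect potentiation. Beta-arrestin recruitment was read as enzyme-fragment luminescence after 1 h at ambient temperature. Full response was set by 57 uM dopamine.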
TRPML1 ag = human mucolipin-1 channel agonism | Q9GZU1 | TRPML1-expressing cells, Ca2+ dye fluorescence, FDSS; host cell line not named in the record; reference of the full effect not given here | activation, % (concentration not given with the values) | 410,000 tested, 0.12% active; in the data active = activation above about 50%; inconclusive = about 30% to 50%; inactive = below about 30%; note: 0% is about no effect; the text of the record puts the active cut at 80%
Target sequence (Q9GZU1 whole entry, looked up): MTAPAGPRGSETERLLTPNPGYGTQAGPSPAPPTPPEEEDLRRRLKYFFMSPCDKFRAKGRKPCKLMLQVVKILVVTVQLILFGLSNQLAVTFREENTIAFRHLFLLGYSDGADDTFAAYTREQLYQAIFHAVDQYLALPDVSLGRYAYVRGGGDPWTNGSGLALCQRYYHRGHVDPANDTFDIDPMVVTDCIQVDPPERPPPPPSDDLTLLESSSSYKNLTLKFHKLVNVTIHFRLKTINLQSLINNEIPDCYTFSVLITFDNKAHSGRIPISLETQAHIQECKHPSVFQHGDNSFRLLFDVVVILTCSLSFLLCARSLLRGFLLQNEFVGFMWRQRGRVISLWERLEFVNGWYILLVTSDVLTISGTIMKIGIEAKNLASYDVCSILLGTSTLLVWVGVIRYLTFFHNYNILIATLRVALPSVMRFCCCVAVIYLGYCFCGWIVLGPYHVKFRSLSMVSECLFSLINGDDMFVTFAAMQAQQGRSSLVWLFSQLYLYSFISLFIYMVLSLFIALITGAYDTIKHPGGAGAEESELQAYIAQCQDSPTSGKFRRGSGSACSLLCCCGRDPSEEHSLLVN
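In this qHTS format, compounds were pin-transferred onto Ca8-dye-loaded TRPML1-DL cells induced with Tet overnight, and intracellular Ca2+ fluorescence was recorded kinetically for 110 s after a 10 s baseline. A subsequent 4uM final 54-4 (EC80) addition followed by a second 110 s read served as the antagonist phase.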
D2 ag = agonists of human D2 dopamine receptor (beta-arrestin) | P14416 | AID 624465 | activation, % (concentration not given with the values) | DiscoveRx PathHunter D2 beta-arrestin, luminescence, 90 min; 100% = 57 uM dopamine signal | 360,000 tested, 0.084% active; in the data active = activation above about 40%; inconclusive = about 15% to 40%; inactive = below about 15%; note: compound concentration not given in the record; the text of the record calls up to 30% inactive
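Agonist mode: compounds alone added to overnight-plated D2 PathHunter cells for 90 min at 37 C, with 57 uM final dopamine (EC100) defining full response. Beta-arrestin recruitment detected by chemiluminescent reagent, read after 1 h at ambient temperature.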
CtBP-E1A inh = inhibitors of CtBP/E1A interaction; AID 651724; activity change, % (no concentration beside the values); 340,000 tested, 0.49% active; AlphaScreen GST-E1A/His-CtBP binding, 1536-well; stronger effect = lower value; control for the full effect not named in the record; in the data active means activity change below about -65%; inconclusive means about -30% to -65%; inactive means above about -30%; note: % is set by controls: 0 for no effect and ±100 for the full control effect; compound concentration not given in the record
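Homogeneous bead-based format: GST-tagged E1A captured on glutathione donor beads, His-tagged CtBP on nickel acceptor beads; compounds precede bead addition by 2 h at 37 °C.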
Six1-Eya2 blk = blocks human Six1 binding to Eya2; AlphaScreen GST-Six1/His-Eya2 binding, biochemical; stronger effect = lower value; control for the full effect not named in the record; activity change, % (test concentration not listed); 360,000 tested, 0.56% active; AID 651725; in the data active = activity change below about -65%; inconclusive = about -30% to -65%; inactive = above about -30%; note: % is set by controls: 0 for no effect and ±100 for the full control effect; compound concentration not given in the record
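Homogeneous AlphaScreen proximity assay pairing GST-Six1 with His-tagged Eya2 (added as 5X mix: 250 nM and 500 nM) in 50 mM Tris pH 8.0, 300 mM NaCl, 1 mM TCEP. Glutathione donor and nickel acceptor beads; 1 h, 37 °C, dark.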
PINK1 modulator = changes PINK1 expression; PINK1 immunofluorescence, high-content cytometry, 24 h; Potency, µM (top dose mostly 76.6 µM), without a hit: at the highest dose activation (PINK1 increase), most hits filed as activators; 410,000 tested, 0.2% active; active = well fitted activation curve with a large enough effect; inconclusive = small, poorly fitted or top-dose-only effect; inactive = flat fitted curve, though single readings scatter; cell line not stated here;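 note: potency is the fitted concentration of half-maximal effect; % of control where 0% means no effect; nearly all actives have a fitted effect of over 65% in size; a mitochondrial uncoupler was the plate control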
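Fluorescence from anti-PINK1 antibody, together with nuclear and cell stains, was scanned on a laser-scanning cytometer. Before staining, stable-line cells were incubated 24 hours with compounds at 5 concentrations; primary antibody 12 h at 10 degrees C.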
* hit, by the source's call; ? = inconclusive; · = not tested or not shown; & = joins results of further samples; [ ] = another dose, or the depositor's remark.

SMILES	D2 potentiator	TRPML1 ag	D2 ag	CtBP-E1A inh	Six1-Eya2 blk	PINK1 modulator
CCc1noc(C)c1C(=O)Oc1ccc(N(C)S(=O)(=O)c2ccc(C)cc2)cc1	-4	0.2	9.4	15	8	0.3%
COc1ccc(/C=N/Nc2nc(-c3ccc(C)cc3)c(NC(C)=O)s2)cc1OC	6	-0.6	-0.7	8	4	-0.9%
C/C=C/c1ccc(OCC(=O)Nc2ccc(C(N)=O)cc2)c(OC)c1	7	0.1	1.3	-2	0	6.1%
CCc1cccc(CC)c1NC(=O)/C(C#N)=C/c1ccccc1C(F)(F)F	96*	0.3	10	-2	-6	-1.9%
Cc1ccccc1-c1cc2nc(NCc3ccncc3)n(C)c(=O)c2s1	-8	0.3	-6.4	-4	-15	1.6%
COc1cccc(NC(=O)N2CCCC2C(=O)Nc2cc(C)ccc2OC)c1 (stereo unspecified)	-14	0.2	-2.4	1	-1	0.5%
CN(C)/C=C(\C#N)C(=O)N/N=C/c1ccc(F)cc1	-5	0.5	-3.2	-1	13	-0.5%
O=C(NCc1ccccc1)c1cc(C2CCCCN2C(=O)OCCF)on1 (stereo unspecified)	-9	-0.4	-5.9	-2	0	-0.8%
COc1ccc(CN2CC(C(=O)NC3CCCCC3)CC2=O)cc1 (stereo unspecified)	-13	0.0	-0.8	1	5	-1.0%
Cc1ccc(NC(=S)NC(=O)c2ccc(-c3ccccc3)cc2)cc1	?	-0.5	-1.1	5	0	9.6%
Cc1ccc(O)c(N=Nc2ccccc2)n1	-11	-0.9	3.1	-23	-1	-0.5%
COc1cc(NC(=O)CN2CCN(c3ccccc3O)CC2)c(C)cc1[N+](=O)[O-]	0	1.4	4.7	2	-10	2.4%
CCOc1ccc(N=Nc2cc(C(C)C)ccc2O)cc1	8	0.8	1.1	?	?	12%
CCn1nc(NC(C)=O)c2cc3cccc(C)c3nc21	-7	1.4	0.2	·	10	1.4%
C=CCNC(=S)N1CCN(c2cccc(C(F)(F)F)c2)CC1	-5	1.9	1.0	4	-5	1.0%
CCN(CC)c1nc(OC)nc(-n2nnc(C(C)=O)c2C)n1	-8	-1.3	-2.0	-7	4	-3.1%
CC(=O)NCCc1ccc(C(=O)CSc2nnc(C3CC3)n2C2CC2)cc1	-1	-0.4	1.0	·	0	1.8%
COc1nc(C#N)c(N2CCOCC2)o1	-1	-0.3	0.3	-2	4	-4.8%[38.3 µM]
C/C(=N\NC(=O)c1cccc(S(=O)(=O)N2CCCC2)c1)c1ccco1	-4	0.0	-0.2	1	-1	0.8%
CCCCSC1(SCCCC)N=C(N)C2(C#N)C(c3ccccc3)NC(C)=C(C)C12C#N (stereo unspecified)	-22	0.2	-3.6	-12	-20	5.8%
O=[N+]([O-])c1ccc(Cc2ccccn2)c([N+](=O)[O-])c1	15	-0.8	5.7	7	-15	1.2%
Cc1ccc(C2N(c3cccc(Cl)c3)C(=O)N3CCCN23)cc1 (stereo unspecified)	-5	3.0	2.5	·	-1	-1.1%
O=C(O)CC/C(=N\Nc1ccc(S(=O)(=O)N2CCCC2)cc1[N+](=O)[O-])c1cccs1	-17	-0.7	-3.6	-7	-5	-0.3%
CSCCC(NC(=O)C1CCCCC1)c1nc2ccccc2[nH]1 (stereo unspecified)	-8	0.6	-4.3	7	0	-0.6%
COCCNC(=O)C1(C)CCCN(Cc2cc(-c3ccccc3)nn2C)C1 (stereo unspecified)	-4	-0.6	-4.4	-9	8	2.4%
N#Cc1nc(-c2ccc(F)cc2)oc1NCc1ccco1	-22	-1.1	-4.9	·	-2	5.1%
O=C(CCl)Nc1ccc(S(=O)(=O)Nc2nccs2)cc1	0	-0.2	-3.3	2	12	?
C=CCSc1nnc(-c2sc(-c3ccccc3)nc2C)n1C	-21	0.2	-1.0	2	-1	·
COc1cccc(NC(=O)CN(C)C(C)C(=O)Nc2ccc(S(=O)(=O)N3CCOCC3)cc2)c1 (stereo unspecified)	-7	0.4	0.5	3	16	1.3%
COc1cc(OC)c2c(c1)OC(=O)CC2c1ccc2c(c1)OCO2 (stereo unspecified)	1	0.1	-2.5	0	4	-0.3%
O=c1c2[nH]c3ccc(Cl)cc3c2ncn1CCN1CCCCC1	17	-0.4	-2.7	4	2	-1.5%
CCOc1ccc2nc(/N=C/c3c(C)[nH]n(-c4ccccc4)c3=O)sc2c1	-16	1.7	-0.8	?	?	4.1%
CC(C)Oc1ccc(Br)cc1C(=O)N/N=C/c1c[nH]c2ccccc12	-4	-0.4	2.0	0	20	13%
CCOc1ccc(C(=O)N2CCC(C(=O)c3ccc4c(c3)OCCO4)CC2)cc1	3	0.7	3.4	3	-2	-2.2%[38.3 µM]
COc1ccc(NS(=O)(=O)c2cccc(C(=O)N3CCN(C/C=C/c4ccccc4)CC3)c2)cc1	-9	-1.1	0.2	-3	?	1.0%
COc1cc(OC)c(OC)cc1CCC(C)NCCC(c1ccccc1)c1ccccc1 (stereo unspecified)	-39	1.8	14	·	?	-0.7%
Cc1ccccc1-n1nnnc1SCC(=O)Nc1ccc(S(=O)(=O)N2CCCC2)cc1	17	-0.5	-2.8	3	-1	0.3%
CCOc1cc(C(C(=O)NCC2CCCO2)N(C(=O)Cn2nnc3ccccc32)c2cccc(OC)c2)ccc1O (stereo unspecified)	-6	-1.2	-8.1	-1	4	3.4%
COc1cc(OC)c2c(-c3ccccc3)cc(=O)oc2c1C(CCN1CCCC(C)C1)c1ccc(N(C)C)cc1 (stereo unspecified)	-32	-0.1	-0.4	·	-67*	-0.8%
COc1ccc(NC(=O)COC(=O)CNS(=O)(=O)/C=C/c2ccccc2)cc1OC	-4	0.1	1.3	·	6	0.9%
COCc1cc(=O)[nH]c(N2CCN(C(=O)c3ccco3)CC2)n1	0	-0.6	5.3	8	7	-0.7%
CCCn1c(=O)c(C(=O)NCc2cccnc2)c(O)c2ccccc21	-7	1.9	-1.7	10	3	·
COc1ccc(-c2cc(C(=O)NN3CCOCC3)c3ccccc3n2)cc1OC	-12	0.0	-2.3	-4	-1	2.5%
COc1ccc(C(=O)/C=C/Nc2ccc(S(=O)(=O)Nc3nc(C)cc(C)n3)cc2)cc1OC	-13	0.0	1.9	13	?	-3.0%
COc1cc(OC)cc(-c2nc3ccccc3c(=O)n2OC(=O)c2ccccc2C)c1	19	0.3	1.5	1	-1	7.7%
O=C(CN1CCN(c2ccccc2)CC1)Nc1nccs1	-20	1.4	0.0	-3	-5	1.2%
COc1ccc2nc3sc(C(=O)NCCCN4CCc5ccccc5C4)cc3cc2c1	-16	1.8	-3.1	?	?	?
Cc1ccc(C(C(=O)NC(C)(C)C)N(Cc2cccs2)C(=O)c2csnn2)cc1 (stereo unspecified)	10	0.8	-1.7	-10	-5	-1.8%
Cn1c(SCC(=O)NCC2CCCO2)ncc(C(=O)Nc2ccc(Cl)cc2)c1=O (stereo unspecified)	-1	0.4	-2.7	8	-7	2.1%
CCCCOc1ccc(C(=O)NCc2ccco2)cc1	1	1.4	-2.3	-18	-2	-4.8%
CC1=N/C(=C/c2cccnc2)C(=O)O1	-2	-0.1	-8.3	-2	-1	-1.3%
COc1ccc(C(C(=O)NC2CCCCC2)N(C(=O)c2ccco2)c2ccccc2OC)cc1 (stereo unspecified)	-3	0.4	-0.7	-11	-9	1.4%
COC(=O)C1=C(N)OC2=C(C(=O)CCC2)C1c1cccnc1 (stereo unspecified)	-1	0.7	-2.1	-2	8	0.6%
COc1ccccc1N(CC(=O)Nc1ccc(F)c(F)c1)S(C)(=O)=O	-7	-0.3	-5.9	4	0	0.9%
COc1ccc(S(=O)(=O)N2CCCCCC2)cc1C(=O)OCc1cccc(OC)c1OC	-21	0.2	-3.1	-3	1	1.8%
COc1ccc(S(=O)(=O)NCC2CCC(C(=O)NCC(OC)OC)CC2)cc1 (stereo unspecified)	3	0.1	-0.8	4	3	-0.7%
COC(=O)c1ccccc1NC(=O)C/C(C)=N/NC(=O)CC#N	-5	1.2	-0.1	·	-10	0.2%
COc1ccc(S(=O)(=O)NC(C)C(=O)NCc2ccc3c(c2)OCO3)cc1OC (stereo unspecified)	-9	-1.4	-5.3	0	-18	2.6%
CC1=Nc2ccc(C)cc2/C1=C/c1c(N)n2oc(C)cc2nc1=O	-3&-6	0.1&2.7	-1.5&-0.3	-4&-8	-4&-1	?
COc1cccc(NC(=O)CN(C)C(=O)C2CC3C=CC2C3)c1 (stereo unspecified)	-5	-1.0	-0.2	0	-3	0.8%

One compound at a time, as listed above. Order of screens: D2 potentiator	TRPML1 ag	D2 ag	CtBP-E1A inh	Six1-Eya2 blk	PINK1 modulator
Listed for CC1=N/C(=C/c2cccnc2)C(=O)O1 → -2	-0.1	-8.3	-2	-1	-1.3%
Listed for COc1cccc(NC(=O)CN(C)C(=O)C2CC3C=CC2C3)c1 (stereo unspecified) → -5	-1.0	-0.2	0	-3	0.8%
Listed for CC1=Nc2ccc(C)cc2/C1=C/c1c(N)n2oc(C)cc2nc1=O → -3&-6	0.1&2.7	-1.5&-0.3	-4&-8	-4&-1	?

Continued:
SMILES	D2 potentiator	TRPML1 ag	D2 ag	CtBP-E1A inh	Six1-Eya2 blk	PINK1 modulator
Cc1c(C)c2ccc(OCC(=O)Nc3cccnc3)cc2oc1=O	-1	6.4	-4.1	·	4	-0.9%
CCCCOc1ccc(-c2cnc3ccccc3n2)cc1	-3	-0.5	-4.3	0	21	8.1%
CCCCn1c(=O)[nH]c(=O)c2c1nc(-c1ccc(-c3ccccc3Br)o1)n2CC	-16	-0.5	-4.5	2	6	6.4%
Cn1c(N)c(C(=O)Nc2c(Cl)cccc2Cl)sc1=S	-2	0.5	5.1	0	-11	5.6%
Cc1c(N/C=C/C(=O)c2cccs2)c(=O)n(-c2ccccc2)n1C	1	0.1	-0.1	-1	-1	-0.8%[38.3 µM]
Cc1cc2c(N=NC(=O)C3CC3c3ccccc3)c(O)[nH]c2cc1Br (stereo unspecified)	-7	-0.6	-6.0	0	-5	-2.1%
CCc1cc(=O)oc2cc(C)cc(OCC(=O)NCC(O)c3ccccc3)c12 (stereo unspecified)	-2	-0.9	0.6	-2	0	0.2%
CSc1ccccc1-c1nnc(-c2ccc(Cl)c(Cl)c2)o1	0	-0.6	-3.3	6	0	9.6%
Cc1cc(=O)nc2c3ccccc3n(CC(=O)NCCC3=CCCCC3)n12	-36	-0.4	-3.4	6	-1	-0.1%

Reprinted at random: four entries already listed
SMILES	D2 potentiator	TRPML1 ag	D2 ag	CtBP-E1A inh	Six1-Eya2 blk	PINK1 modulator
CCCCn1c(=O)[nH]c(=O)c2c1nc(-c1ccc(-c3ccccc3Br)o1)n2CC	-16	-0.5	-4.5	2	6	6.4%
Cc1cc(=O)nc2c3ccccc3n(CC(=O)NCCC3=CCCCC3)n12	-36	-0.4	-3.4	6	-1	-0.1%
Cc1c(N/C=C/C(=O)c2cccs2)c(=O)n(-c2ccccc2)n1C	1	0.1	-0.1	-1	-1	-0.8%[38.3 µM]
CCCCOc1ccc(-c2cnc3ccccc3n2)cc1	-3	-0.5	-4.3	0	21	8.1%
